# NPYLR7 ag – activates Aedes aegypti NPYLR7 receptor; 0.15% of 270,000 active; activation, % at 10 µM; HEK293T NPYLR7/Galpha15, GCaMP6s calcium fluorescence; in the data active = activation above about 40%;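 note: 0% = vehicle and 100% = reference agonist at the receptor; some compounds past the cut are filed as inactive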
# NPYLR7 ag max-min – further read-out of NPYLR7 ag, marked with its call; activation, %; measured here: Max-Min RFU normalised activation; some inactives read as strong as hits;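 span of the calcium signal over five minutes; 0% = vehicle and 100% = native peptide agonist; compound fluorescence can raise it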
# Starred values were filed as active, the others as inactive; & = joins results of further samples. An excerpt; rates above refer to the full screens.
SMILES | NPYLR7 ag | NPYLR7 ag max-min
O[C@@H]1CN(c2ccc(-c3ccccc3)nn2)CC[C@H]1c1ccc2c(c1)OCO2 | 10 | 5
C=c1ccc2c3c1=C(O)C(=O)N3C(C)(C)C=C2C | -2 | -2
Cc1ccc(C(=O)c2ccccc2C(=O)N2CCn3cncc3C2)cc1 | 9 | 5
COc1ccc(NC(=O)C2CCN(S(=O)(=O)c3ccc(Cl)s3)CC2)c([N+](=O)[O-])c1 | -8 | -9
CCOC(=O)[C@@H]1CCCC[C@@H]1NC(=O)C1CCCN(Cc2cccnc2OCC)C1 (stereo partly drawn) | 1 | -1
COc1cccc(CN(C)C(=O)CCc2nc3sc4c(c3c(=O)[nH]2)CCC4)c1OC | 5 | 3
CCN(CC)C(=O)Oc1ccc2c(ccn2Cc2ccc(OC(F)(F)F)c(Cl)c2)c1-c1cc(C)cc(C)c1 | 5 | -3
COC(=O)c1sccc1NC(=O)CCN1CCCC1c1ccccn1 (stereo not drawn) | 2 | 0
CC(Sc1ccccc1C(=O)O)C(=O)Nc1ccc(N(C)C)cc1 (stereo not drawn) | 6 | 2
CCC(C)N(Cc1csc(COc2ccccc2C)n1)C(=O)c1ccco1 (stereo not drawn) | 14 | 7
Cn1c(=CC(=O)C(C)(C)C)s/c(=C/c2cn[nH]c2C(C)(C)C)c1=O | -7 | -9
N#CC(=C(O)c1ccc(Oc2ccccc2)cc1)c1nc2ccccc2[nH]1 | -8 | -9
Cc1ccccc1-n1c(-c2ccc(Cl)cc2)cc(C(=O)NCCN2CCOCC2)c1C | -2 | 9
O=C(Cn1c(CO)cnc1SCc1ccccc1)NC1CCCC1 | 6 | 3
COc1ccc(OC)c(C(O)c2nccn2C)c1 (stereo not drawn) | 3 | -2
COc1ccc(CN2CCNC(=O)C2CC(=O)NCCc2nc(C)c3c(n2)CCC3)cc1C (stereo not drawn) | 7 | 6
O=S(=O)(Oc1cc(Cl)ccc1-c1nc2ncccc2o1)c1cccc(C(F)(F)F)c1 | -2 | -1
Cc1ccc(Cl)cc1Nc1nc(C(=O)N(CCC(=O)NC2CC2)C2CC2)cs1 | 5 | 4
COCCN1C(=O)C(C(C)C)NC12CCN(C(=S)Nc1cccc(Cl)c1)CC2 (stereo not drawn) | 5 | 2
[O-][n+]1ccccc1SCc1cc2c(cc1Br)OCO2 | 0 | 23
CCCN(Cc1csc(COc2ccc(OC)cc2)n1)C(=O)c1cccs1 | 26 | 18
CCn1c2c(=O)n(C)c(=O)n(C)c2n2c(-c3ccc(OCc4ccccc4)cc3)nnc12 | 5 | 2
COc1ccccc1CCNC(=O)CN1CN(c2ccccc2)C2(CCN(S(=O)(=O)c3cccc(C(F)(F)F)c3)CC2)C1=O | -4 | 7
CNC(=O)[C@@H]1C[C@@H](N)CN1Cc1c(F)ccc(C)c1Cl | 36 | 28
O=C1OC(c2cccc3ccccc23)=N/C1=C\c1cccnc1 | -3 | -9
Cc1sc2nc(CSc3nnc(C4CC4)n3C3CC3)[nH]c(=O)c2c1C | -1 | 11
CN(C)CCNc1nc(Nc2ccc(F)cc2)c2nccnc2n1 | 7 | 7
COC(=O)[C@@H]1CCCN1C(=O)CCC1(Cc2ccc(-c3ccccc3)cc2)CCC(=O)N1 (stereo partly drawn) | 2 | 0
CCOc1ccccc1N1CCN(C(=O)C2CCCN(c3nc(Cc4ccc(Cl)cc4)ns3)C2)CC1 (stereo not drawn) | 28 | 34
c1cc(-c2ccc(-c3nccn3Cc3ccc4c(c3)OCO4)o2)[nH]n1 | 8 | -1
Cc1n[nH]c(C)c1CCCNC(=O)c1cc(=O)[nH]c2ccccc12 | 24 | 13
CC(C)(C)c1ccc(C(=O)N2CCN(Cc3ccccc3)CC2)cc1 | 2 | 2
COc1ccc(CN(CC(C)C)C(=O)c2ccc(Br)cc2)cc1OS(=O)(=O)c1cccc(C(F)(F)F)c1 | -4 | 10
Cc1ccc(-n2cc(-c3ccccc3)c3c(NCCOCCO)ncnc32)cc1 | 0 | 0
COc1ccc(CCn2c(-c3cccc(OCc4ccccc4)c3)nc3ccccc3c2=O)cc1 | 2 | 0
CC12CC3CC(C)(C1)CC(CC(=O)NNC(N)=O)(C3)C2 | 8 | 13
Cc1ccc(C(=O)NCC(=O)Nc2ccc(N3CCCCC3)cc2)cc1 | 7 | 2
COc1ccc(CN(CCc2c[nH]c3ccccc23)C(=O)CN(C(=O)C2CC2)C(C)C)cc1OC | 14 | 16
O=C(Nc1cnc2n1CCCC2)c1ccc(CN2CCCC2)o1 | 1 | -3
COc1cc(OC)cc(C(=O)N2CCN(c3nc4cc(C)c(C)cc4nc3-c3ccccc3)CC2)c1 | 7 | 4
Cc1nc(-c2cccnc2)sc1-c1ccc(SCC(=O)Nc2ccc(F)cc2)nn1 | 4 | 14
COc1ccc(-c2cc(-c3ccc(OC)cc3)c(C#N)c(SCC#N)n2)cc1 | 13 | 7
COCC(=O)N1CCN(c2nc(-c3ccccc3)nc(COC)c2Cc2cccc(C)c2)CC1 | 3 | 11
COc1cccc(C2c3nc[nH]c3CCN2Cc2cc(C(C)(C)C)n[nH]2)c1 (stereo not drawn) | -5 | -9
CC1CCN(C(=O)NCc2cccc(NC(=O)c3ccco3)c2)C1 (stereo not drawn) | -6 | -5
CSc1ncc(C(=O)O)c(N2CCNC(C(=O)N3CCCC3)C2)n1 (stereo not drawn) | -2 | -3
CCOC(=O)Cn1c(=NC(=O)CCCS(=O)(=O)Cc2ccccc2)sc2cc(F)ccc21 | -9 | -16
O=C(NCCc1ccc(F)cc1)c1ccccc1Br | -2 | 0
COCCNC(=O)COc1coc(CN2CCN(c3ccccc3OC)CC2)cc1=O | -3 | 33
COc1ccc(-c2cccc(-c3cccc(NC(=O)c4ccc(Cl)nc4)c3)n2)cc1 | 13 | 11
CC(C)Nc1ncccc1C(=O)N[C@@H](Cc1c[nH]c2ccccc12)C(N)=O | 3 | 4
CCOC(=O)c1c(N)sc2c1CCN(Cc1ccccc1)C2 | -14 | -22
Cc1ccc(S(=O)(=O)Nc2cccc(NC(=O)c3cccnc3)c2)cc1C | 14 | 12
CCOc1cccc2sc(N(CCCN3CCOCC3)C(=O)c3ccc([N+](=O)[O-])o3)nc12 | -1 | -7
C=CCOCC(O)CN(Cc1ccsc1)Cc1ccco1 (stereo not drawn) | 5 | 6
CCOC(=O)c1c(NC(=O)c2cc(C)nn2C)c(-c2ccc(OC)cc2)cn1Cc1ccccc1 | 2 | -7
Cc1ccc(COc2ccc3ccccc3c2CNc2nn[nH]n2)cc1 | -8 | -16
CSCc1ccc(C(=O)Nc2nc(C)cs2)o1 | -3 | -4
Cc1ccc2[nH]c(C(=O)O)c(CN3CCCC4(CCNCC4)CC3)c2c1 | -7 | -8
COc1cc2nc(CN3CCN(Cc4ccc(C(F)(F)F)cc4)CC3)[nH]c(=O)c2cc1OC | -5 | -5

# Other records
SMILES | NPYLR7 ag | NPYLR7 ag max-min
Cn1cc(C(=O)NCCSC2CCCC2)cn1 | 6 | 6
CCc1ccc(-c2c(-c3ccccc3)ncn2CC(C)n2cncn2)o1 (stereo not drawn) | 3&4 | 1&15
O=S(=O)(NC1CC1)C1CCN(Cc2cc(Cl)nc(Cl)c2)C1 (stereo not drawn) | 2 | 0
COCCNC(=O)[C@@]1(OCc2cccc(OC)c2)CC(OCc2ccc(C#N)cc2)[C@@H]2OC(C)(C)O[C@@H]2C1 (stereo partly drawn) | 3 | 5
CC(C)NC(=O)[C@@H]1C[C@@H](N)CN1C(=O)c1ccccc1-c1ccccc1F | 19 | 18
CCN(CC1CC1)C(=O)NCCC(C)(C)C | 10 | 2
COc1cc(C(=O)NCc2ccc3c(c2)OCCO3)ccc1OC(F)F | 4 | -1
Cc1nn(C)c(C)c1S(=O)(=O)NCc1cccs1 | 11 | 4
COc1ccc(-c2nc(COC(=O)c3nnn(-c4ccc(OC)cc4)c3C)c(C)o2)cc1 | 24 | 17
Cc1cccc(CNC(=O)N2CCN(C(C)c3ccccc3)CC2)c1 (stereo not drawn) | 20 | 17
O=C(Nc1ccon1)NC1CC(=O)N(c2ccc3c(c2)OCCO3)C1 (stereo not drawn) | -7 | -2
O=C(Nc1ccc(CN2CCCC2)cc1)c1coc(Br)c1 | -2 | -2
NS(=O)(=O)c1ccc(-c2ccc(/C=C3/SC(=S)N(Cc4ccco4)C3=O)o2)cc1 | 2 | -3
CCOC(=O)c1c(C)[nH]c(C(=O)COC(=O)CCC2CCCC2)c1C | 2 | 1
CC1=NN(c2ccc(Br)cc2)C(=O)/C1=C\c1ccc(-c2cc([N+](=O)[O-])ccc2Cl)o1 | 11 | 16
CCn1cc(S(=O)(=O)Nc2cc(C)c(Br)cn2)cn1 | -6 | -7
Cc1nc(C2CCCNC2)cc(N(C)Cc2cccc3cnccc23)n1 (stereo not drawn) | 2 | 9
Cc1cc(C)c2[nH]c(C(=O)NCCn3c(C)cc(C)nc3=O)c(C)c2c1 | 20 | 7
COc1cc(CC2(CCC(=O)NCc3cn4cc(C)sc4n3)CCC(=O)N2)ccc1F (stereo not drawn) | 2 | -1
CC(c1nnc(-c2cccc(Cl)c2)o1)N1CCNC(=O)C1 (stereo not drawn) | 12 | 9
NC(=O)N1CC(O)CC1C(=O)O (stereo not drawn) | 13 | 9
COCCNC(=O)C(NC(=O)c1ccccc1C)C1CCN(C(=O)c2ccccc2OC)CC1 (stereo not drawn) | -8 | -7
Cc1[nH]cnc1-c1c(-c2ccccc2)ncn1CC1OCCc2ccccc21 (stereo not drawn) | 25 | 15
Cc1cc(F)c2c(c1)CCCN2S(=O)(=O)c1ccc(C(N)=O)cc1 | 3 | 2
Cc1[nH]cnc1-c1nccn1-c1ccc2c(c1)OCO2 | 4 | 2
C=CCN(Cc1ccc(F)cc1)Cc1ccc(OC)c(O)c1 | 0 | -8
CC(Cn1cncn1)NS(=O)(=O)/C=C/c1ccccc1Cl (stereo not drawn) | 13 | 9
Cc1ccc(NC(=O)N2CCN(CCS(C)=O)CC2)cc1Cl (stereo not drawn) | -20 | -21
COC(=O)c1sc2c(c1N)CCC(C(C)(C)C)C2 (stereo not drawn) | -2 | -3
Oc1ccc2oc3c(c2c1CN1CCN(c2ccccc2)CC1)CCCC3 | 0 | -1

# 2 of the compounds above, with each value named.
CC(C)NC(=O)[C@@H]1C[C@@H](N)CN1C(=O)c1ccccc1-c1ccccc1F
  NPYLR7 ag = 19	NPYLR7 ag max-min = 18

Oc1ccc2oc3c(c2c1CN1CCN(c2ccccc2)CC1)CCCC3
  NPYLR7 ag = 0	NPYLR7 ag max-min = -1

# Next section
# Results follow in this order: NPYLR7 ag	NPYLR7 ag max-min
C[N+]([O-])=Cc1ccc(F)cc1
    1	-1
CCOCCn1ccc2c(NC(=O)c3ccccc3OC)c(OC(=O)N(CC)CC)ccc21
    31	17
Cc1nn(C)c(C)c1NC(=O)CN(C)Cc1ccsc1
    9	8
COc1ccc(-n2nc(-c3cccs3)cc2C(=O)NCc2cccc(C(F)(F)F)c2)cc1
    1	14
N#Cc1ccc(C=NNC(=O)c2cccc(S(=O)(=O)N3CCCCC3)c2)cc1
    -5	-9
CSc1ccc(CN2CCC2(C)C(=O)Nc2cccc(NS(C)(=O)=O)c2)cc1 (stereo not drawn)
    3	3
O=C(c1ccc2c(c1)OCO2)N1CCN(c2nccc(-c3ccco3)n2)CC1
    -10	4
CC(c1ccc(F)cc1)N(C)Cc1nc2ccsc2c(=O)[nH]1 (stereo not drawn)
    11	4
CC(c1nncn1C)n1cc(-c2ccc3c(c2)Cc2ccccc2-3)nn1 (stereo not drawn)
    0	7
Cc1ccc(C)n1-c1sccc1C(=O)NC1CCCNC1=O (stereo not drawn)
    3	0
COCCN(Cc1cccc(OS(C)(=O)=O)c1)C(=O)Nc1cccc(Br)c1
    -2	-8
COc1ccc(CCc2nnc(CCC(=O)N3CCN(C)C(c4ccccc4)C3)o2)cc1 (stereo not drawn)
    -4	-6
O=C(COc1ccc(F)c(Cl)c1)Nn1cnc2ccccc2c1=O
    1	1
FC(F)(F)c1nnc2c3ccccc3c(-n3cnc4ccccc43)nn12
    1	-1
CCn1c(C2CCN(Cc3cccn3-c3cccnc3)CC2)n[nH]c1=O
    0	-4

# Two neighbouring records from above, for reference:
# Results follow in this order: NPYLR7 ag	NPYLR7 ag max-min
C[N+]([O-])=Cc1ccc(F)cc1
    1	-1
CCOCCn1ccc2c(NC(=O)c3ccccc3OC)c(OC(=O)N(CC)CC)ccc21
    31	17

# Next section.
# Results follow in this order: NPYLR7 ag	NPYLR7 ag max-min
CCC(C(=O)NCc1cccc(-c2ncc(-c3cccc(OC)c3)[nH]2)c1)c1ccccc1 (stereo not drawn)
    24	22
CCOC(=O)N1CCN(C(=O)c2ccc(Oc3nc(Cc4ccc(F)cc4)ns3)c(OC)c2)CC1
    3	3
CCOC(=O)c1nc2cc(Cl)c(Cl)cc2nc1N1CCCN(S(=O)(=O)c2ccc(OC)cc2)CC1
    12	5
COc1cc2c(cc1OC)C(=O)NCC(C)(C)O2
    24	23
CCOC(=O)C1(Cc2ccc(F)cc2F)CCCN(Cc2cccn2-c2ncccn2)C1 (stereo not drawn)
    1	-6
O=C(c1cccc(C(F)(F)F)c1)N1CCCC(OCc2ccc(F)cc2)C1 (stereo not drawn)
    0	-2
Clc1ccc(Cl)c(CNC2(c3nccs3)CCCC2)c1
    5	2
CC#CC(=O)N1CCC(C(=O)Nc2ccc(Oc3ccccc3)nc2)CC1
    -1	-3
Cc1ccc2c(C)c(C(=O)NCCc3nc(C)cc(=O)[nH]3)oc2c1
    22	7
COc1ccc(C23CC4CC(CC(C4)C2)C3)cc1
    -6	-12
Cc1nnc(NC(=O)[C@H]2CCCCN2C(=O)OC(C)(C)C)s1
    6	3
CCC(=O)N1CCSC1c1cc(OC)ccc1OC (stereo not drawn)
    12	22
Nc1nc(-c2ccncc2)cs1
    8	10
Cc1ccccc1-n1c(SCc2ccc(C(=O)NCc3cccc(C(F)(F)F)c3)cc2)nnc1-c1ccncc1
    19	18

# 3 entries already listed, sorted by SMILES length, lowest first.
# Results follow in this order: NPYLR7 ag	NPYLR7 ag max-min
COc1ccc(C23CC4CC(CC(C4)C2)C3)cc1
    -6	-12
NS(=O)(=O)c1ccc(-c2ccc(/C=C3/SC(=S)N(Cc4ccco4)C3=O)o2)cc1
    2	-3
CCN(CC)C(=O)Oc1ccc2c(ccn2Cc2ccc(OC(F)(F)F)c(Cl)c2)c1-c1cc(C)cc(C)c1
    5	-3

# Compound activity: PubChem, Fisher Drug Discovery Resource Center
